Sa growth inh = inhibitors of Staphylococcus aureus growth at 42 °C; relative growth, % (no concentration beside the values); 170,000 compounds, 0.53% hits; S. aureus RN4220 growth, OD600, 20 h; stronger effect = lower value; AID 720641;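 active means growth at 42 °C up to 50% and 20 or more points under that at 30 °C, or under 10% at both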;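 further: 300 nL library stock went into each well; scaled to the means of positive and negative controls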
GIV-Gai inh = GIV-Galpha-i interaction inhibition | percent of control (FP), % (no concentration beside the values) | 210,000 compounds, 0.42% hits | Galpha-i3/FITC-GIV peptide fluorescence polarization, 90 min; stronger effect = lower value; scaled: aluminum fluoride 0%, vehicle 100%;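 active means replicate mean at 85% of control or lower, very high polarization wells dropped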;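 further: wells of about 15 µL received 100 nL stock; the first replicate is given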
Target sequence (P08753 whole entry, looked up): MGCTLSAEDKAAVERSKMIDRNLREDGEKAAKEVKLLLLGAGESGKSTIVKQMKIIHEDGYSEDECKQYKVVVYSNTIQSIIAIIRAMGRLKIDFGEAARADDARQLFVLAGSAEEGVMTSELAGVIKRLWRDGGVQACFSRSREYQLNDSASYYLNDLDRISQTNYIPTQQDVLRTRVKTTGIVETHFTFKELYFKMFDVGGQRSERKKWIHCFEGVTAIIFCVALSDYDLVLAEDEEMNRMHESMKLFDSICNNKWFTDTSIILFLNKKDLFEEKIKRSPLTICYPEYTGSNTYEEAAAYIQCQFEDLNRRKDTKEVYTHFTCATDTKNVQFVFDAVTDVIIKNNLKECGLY
HCMV NEC inh = disrupts HCMV UL50-UL53 complex binding; AID 1918969; HTRF UL50-UL53 interaction, normalized percent inhibition; 190,000 compounds, 0.15% hits; inhibition, % (concentration not given with the values);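 active means both replicates at 50% or more, plus weaker picks with an unusually low signal ratio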;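 further: stock transfer was 100 nL into about 20 µL; 0% = negative control wells and 100% = wells with untagged competitor protein; inactives centre near -12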
Sa growth inh second temp = also measured in Sa growth inh; calls as there; relative growth, %; measured here: growth at 30 °C;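 optical density after 20 h as mean of two plates; 100% = untreated growth and lower means inhibition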
* hit, by the source's call; · = no result given; & = joins results of further samples.

SMILES	Sa growth inh	Sa growth inh second temp	GIV-Gai inh	HCMV NEC inh
COc1ccc(S(=O)(=O)N2CCOCC2)cc1-c1nnc2c3ccccc3c(C)nn12	115	91	106	54*
Cc1ccc(NC(=O)C(Cc2ccccc2)NS(=O)(=O)c2ccc3c(c2)c(=O)n(C)c(=O)n3C)c(C)c1 (configuration not stated)	105	91	100	-23
O=C(O)CSCC(=O)N1CCN(c2ccnc3cc(Cl)ccc23)CC1	107	88	103	-2
CCN(CC)c1ccc(NC(=O)CCc2c(C)nc3ncnn3c2C)c(C)c1	98	99	109	0
Cc1ccc(NC(=O)CSC(=N)N)cc1	100	79	107	·
CCOC(=O)C(CC)Sc1nnc(-c2ccccc2Br)n1C (configuration not stated)	110	78	102	-8
CCc1ccccc1NC(=O)c1cc(-c2ccc(Cl)s2)nc2ccccc12	100	90	107	-21
Cc1ccc(CN2CCN(C3CCN(S(=O)(=O)c4ccc5c(c4)CCCC5)CC3)C(=O)C2=O)cc1	·	·	100	-12
Cc1nc(C(=O)NCC(=O)c2ccc(Cl)cc2)c(C(F)(F)F)o1	91	85	104	-33
N#Cc1c[nH]n2c(NC3CCCC3)c(-c3ccc(Br)cc3)nc12	90	80	104	3
CCOc1ccc(NC(=O)c2c(NC(=O)c3cccs3)sc3c2CCC(C(C)(C)C)C3)cc1 (configuration not stated)	97	89	108	-18
O=C(COc1ccc(Cl)cc1)NCC(c1ccccc1)c1c[nH]c2ccccc12 (configuration not stated)	·	·	109	-6
CCOCCC(=O)Nc1ccccc1Sc1ccccc1	84	112	102	13
Cc1ccc(NC(=O)CSc2ccc(-c3cccs3)nn2)cc1Cl	108	84	104	·
Cc1ccccc1CNC(=O)c1ccccc1NC(=O)c1nsc2ccccc12	124	82	105	·
O=C(NC1CC(=O)N(c2ccccc2)C1)c1ccc(Br)o1 (configuration not stated)	98	83	100	·
Cc1ccc(CC(=O)N2CCCC(c3nc4c(nnn4Cc4cc(C)ccc4C)c(=O)[nH]3)C2)cc1 (configuration not stated)	·	·	107	5
Cc1[nH]c2ccccc2c1C(=O)CSC(=S)N1CCCCC1	110	99	97	·
COc1ccccc1NC(=O)C1=C(C)Nc2nc3ccccc3n2C1c1cccc(Br)c1 (configuration not stated)	97	92	103	7
O=C(Nc1ccc2c(c1)OCO2)c1nnc(C2CCCN2C(=O)C2CCCC2)s1 (configuration not stated)	·	·	109	-41
Cc1ccc(C)c(N2CCN(C(=O)c3ccc(N4CCCC4)c(S(=O)(=O)N4CCCC4)c3)CC2)c1	·	·	107	-3
COc1ccc(-c2nc(C#N)c(N3CCN(C)CC3)o2)cc1	105	91	101	·
Cn1cc(NC(=O)NCCCN2CCN(c3ccccc3)CC2)c2ccccc2c1=O	·	·	101	-20
Cc1cccc(NC(=O)c2ccc(-c3nc(CSc4ccccc4)c(C)o3)cc2)c1C	111	88	103	·
CCCc1nc(N)c(C#N)c(-c2cccs2)c1CC	88	82	108	-23
CCOC(=O)c1ccc(NC(=O)Cn2c(=O)nc(-c3ccccc3)c3ccccc32)cc1	·	·	107	-12
N#Cc1cccc(NC(=O)CCC(=O)N2CCN(S(=O)(=O)c3ccccc3)CC2)c1	98	96	·	-10
CC(C)CCNC(=O)CC(c1ccc(F)cc1)N1Cc2ccccc2C1=O (configuration not stated)	·	·	103	-3
CCn1nc(C)c(CCN(C)C(=O)Nc2ccc(Br)cc2)c1C	·	·	104	-13
Cc1csc(NC(=O)C2CCCN(S(=O)(=O)c3cccc4nsnc34)C2)n1 (configuration not stated)	108	79	112	-73
CC[C@H](C)NC(=O)Cc1ccc(NC2=NC3CS(=O)(=O)CC3S2)cc1 (some centres not stated)	102	95	98	-28
Cc1ccc(NC(=O)C(C)OC(=O)CSc2ccccc2)cc1 (configuration not stated)	93	93	·	-9
Cc1c(Br)sc2sc(-c3ccn[nH]3)c(C)c12	51	37	103	2
COc1ccccc1NC(=O)N1CCNCC1	99	86	102	7
Cc1nc(-c2cc(S(=O)(=O)Nc3cc(F)ccc3F)c(C)s2)no1	·	·	106	-7
CCOC(=O)C1CCN(Cc2cccc(NC(=O)c3ccco3)c2)CC1	103	97	99	-3
CCOc1ccc(S(=O)(=O)c2cn(Cc3ccc(OC)cc3)c3ccc(F)cc3c2=O)cc1	105	90	106	-20
O=C(CCc1nc(-c2ccccc2F)no1)NC1CCCCC1	90	87	101	0
Cn1cccc1C1=NCCO1	88	80	98	-15
COc1ccc(CNC(=O)CNC(=O)C2(C)Cn3c(cc4ccccc43)C(=O)N2C)cc1 (configuration not stated)	·	·	102	27
CCOc1ccccc1NC(=O)C(CC)n1c(=O)c(OCC)nc2cccnc21 (configuration not stated)	·	·	100	-33
O=C(c1ccccc1)N(Cc1ccco1)Cc1ccco1	90	81	103	-16
O=[N+]([O-])c1ccc(S(=O)(=O)NCc2nc3cccnc3n2Cc2ccccc2Cl)cc1	112	90	106	·
COc1ccc(-c2cc(C(=O)O)c3ccccc3n2)cc1OC	95	85	101	-51
O=C(O)CC(NC(=O)c1cncc(O)c1)C(=O)O (configuration not stated)	86	85	104	-16
N#C/C(=C/c1ccc(-c2ccc(C(=O)O)cc2)o1)c1ccc(Cl)cc1	93	99	113	-92
COC(=C(C#N)C#N)c1ccccc1	113	91	·	2
CCOC(=O)COc1ccc(S(=O)(=O)Nc2cccc(SC)c2)cc1	108	105	95	0
O=C(NCc1ccccc1)c1ccc2c(c1)N(Cc1ccccc1)CCS2	112	106	101&107	-6
COCCNC(=O)c1c(-c2ccccc2)c(-c2ccccc2)nn(C)c1=O	101	90	103	9
Fc1ccc(Nc2ncnc3c2nc2n3CCCC2)cc1	115	68	104	·
CCCN(CCC)C(=O)c1cn(CC)c2ccc(S(=O)(=O)N3CCCCC3)cc2c1=O	105	103	99	12
O=S(=O)(c1ccccc1)n1ccc(-c2ccc(Br)s2)n1	101	84	103	-9
CCOC(=O)c1cnc2ccc(C(=O)OC)cc2c1NCCN(C)C	103	89	104	·
Cc1ccc(N(Cc2ccco2)S(=O)(=O)c2ccc(F)cc2)cc1	92	91	104	-30
COc1ccc(C(CNC(=O)c2ccccc2OC)N2CCCCC2)cc1 (configuration not stated)	·	·	99	-11
CCOC(=O)c1c(C)n(-c2ccccc2)c2ccc(OC(=O)c3ccc(Cl)c([N+](=O)[O-])c3)cc12	·	·	102	-9
O=C(O)Cc1cccnc1	93	104	106	10
O=C(O)c1ccc(COc2ccc3ccc(=O)oc3c2)cc1	·	·	97	-26
CCCn1nnc(NCc2ccc(-c3cccc(Cl)c3)o2)n1	·	·	99	-11

A second format for some results above:
Sequence of screens – Sa growth inh, Sa growth inh second temp, GIV-Gai inh, HCMV NEC inh
CCOC(=O)c1c(C)n(-c2ccccc2)c2ccc(OC(=O)c3ccc(Cl)c([N+](=O)[O-])c3)cc12
→ ·, ·, 102, -9
O=C(O)Cc1cccnc1
→ 93, 104, 106, 10

The listing continues:
SMILES	Sa growth inh	Sa growth inh second temp	GIV-Gai inh	HCMV NEC inh
COc1ccc(NC(=O)C(C)N2C(=O)c3ccccc3S2(=O)=O)c(OC)c1 (configuration not stated)	90	93	101	-11
Cc1nnc2c(=O)n(-c3cccc(F)c3)ccn12	93	89	107	-6
CCOC(=O)C1=C(O)/C(=C/c2cccs2)SC1=Nc1ccccc1	83	62	107	·
O=C(c1cc2ccccc2oc1=O)N1N=C(c2ccccc2)CC1c1ccccc1 (configuration not stated)	78	90	109	·
CCc1ccc(C(=O)N(CC)Cc2ccncc2)s1	104	99	98	-29
CCOC(=O)Cn1c2c(sc1=N)CC(C(C)(C)C)CC2 (configuration not stated)	95	87	·	-7
COc1ccc(NC(=O)N2CCN(C(=O)Cc3csc4ccccc34)CC2)cc1OC	·	·	100	-8
Cn1c(=O)c2nc(SCC(=O)Nc3ccc(Cl)c(Cl)c3)n(C)c2n(C)c1=O	116	90	106	·
O=C(/C=C/c1ccc(S(=O)(=O)N2CCOCC2)cc1)N1CCCCC1	103	94	·	-72
COc1ccc(S(=O)(=O)CCC(=O)N(C)c2ccc(OC)cc2OC)cc1	90	85	105	·
CCN(CC)c1nc2ccccc2[nH]1	97	74	·	-17
O=C(OCC(=O)c1cccs1)c1ccco1	94	94	·	-4
COc1cc(Cl)c(C)cc1NC(=S)N(CCN(C)C)C(C)c1ccco1 (configuration not stated)	91	77	102	·
CS(=O)(=O)N1Cc2ccccc2CC1C(=O)OCc1nc2ccccc2c(=O)n1CC#N (configuration not stated)	109	81	·	-10
Cc1nn(C)c(C)c1CCN(C)C(=O)Nc1cccc(Br)c1	·	·	104	7
CCOc1ccc(-c2nc(Cn3c(=O)cc(C)c4c(C)nn(-c5ccccc5)c43)c(C)o2)cc1	68	89	101	·
CCC(C(=O)Nc1ccc2c(c1)OCCO2)n1nc(-c2ccc(C)cc2)c2c(c1=O)CCCC2 (configuration not stated)	·	·	103	8
CCOC(=O)COc1ccc(CC)cc1C(=O)c1ccn2nc(-c3ccc(F)cc3)cc2n1	104	90	104&95	-14&-31
CCOC(=O)N1CCN(C(=O)CN2C(=O)/C(=C\c3cccc(Cl)c3)Sc3ccccc32)CC1	96	73	100	-2
CC1(C)NC(=S)c2ccccc2N1	104	88	103	-13
O=C(CNC(=O)c1ccc(-c2noc(C3CCCC3)n2)cc1)NC1CCCCC1	·	·	108	-29
NS(=O)(=O)c1ccc(CCNC(=S)NCc2ccco2)cc1	88	103	106	-6
S=c1[nH]nc(-c2ccccc2)n1-c1ccccc1	112	107	102	-1
N#C/C(=C(/O)COc1ccccc1)c1nc2ccccc2[nH]1	135	87	106	·

Structures from the list above that contain a Cl atom (12):
SMILES	Sa growth inh	Sa growth inh second temp	GIV-Gai inh	HCMV NEC inh
O=C(O)CSCC(=O)N1CCN(c2ccnc3cc(Cl)ccc23)CC1	107	88	103	-2
CCc1ccccc1NC(=O)c1cc(-c2ccc(Cl)s2)nc2ccccc12	100	90	107	-21
Cc1nc(C(=O)NCC(=O)c2ccc(Cl)cc2)c(C(F)(F)F)o1	91	85	104	-33
O=C(COc1ccc(Cl)cc1)NCC(c1ccccc1)c1c[nH]c2ccccc12 (configuration not stated)	·	·	109	-6
Cc1ccc(NC(=O)CSc2ccc(-c3cccs3)nn2)cc1Cl	108	84	104	·
O=[N+]([O-])c1ccc(S(=O)(=O)NCc2nc3cccnc3n2Cc2ccccc2Cl)cc1	112	90	106	·
N#C/C(=C/c1ccc(-c2ccc(C(=O)O)cc2)o1)c1ccc(Cl)cc1	93	99	113	-92
CCOC(=O)c1c(C)n(-c2ccccc2)c2ccc(OC(=O)c3ccc(Cl)c([N+](=O)[O-])c3)cc12	·	·	102	-9
CCCn1nnc(NCc2ccc(-c3cccc(Cl)c3)o2)n1	·	·	99	-11
Cn1c(=O)c2nc(SCC(=O)Nc3ccc(Cl)c(Cl)c3)n(C)c2n(C)c1=O	116	90	106	·
COc1cc(Cl)c(C)cc1NC(=S)N(CCN(C)C)C(C)c1ccco1 (configuration not stated)	91	77	102	·
CCOC(=O)N1CCN(C(=O)CN2C(=O)/C(=C\c3cccc(Cl)c3)Sc3ccccc32)CC1	96	73	100	-2
